Mtb RmlCD inh: blocks M. tuberculosis RmlC and RmlD coupled enzymes | RmlC+RmlD coupled enzyme assay, percent inhibition; primary screen in compound mixtures | inhibition, % at 3.6 µM | 160,000 tested, 0.03% active | AID 1533; in the data active means inhibition mostly above about 34%, no sharp cut-off; only retested compounds are shown here; further: some results filed as inactive read as strong as hits
Target sequence (P9WH09 whole entry, looked up): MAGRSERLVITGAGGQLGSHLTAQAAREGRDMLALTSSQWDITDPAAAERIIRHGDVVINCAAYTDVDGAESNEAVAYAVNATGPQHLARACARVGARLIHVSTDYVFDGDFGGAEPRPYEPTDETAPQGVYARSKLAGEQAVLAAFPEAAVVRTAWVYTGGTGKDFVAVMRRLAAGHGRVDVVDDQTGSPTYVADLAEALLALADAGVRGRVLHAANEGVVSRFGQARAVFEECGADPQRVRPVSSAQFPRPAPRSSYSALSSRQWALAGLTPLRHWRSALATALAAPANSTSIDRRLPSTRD
Target sequence (P9WH11 whole entry, looked up): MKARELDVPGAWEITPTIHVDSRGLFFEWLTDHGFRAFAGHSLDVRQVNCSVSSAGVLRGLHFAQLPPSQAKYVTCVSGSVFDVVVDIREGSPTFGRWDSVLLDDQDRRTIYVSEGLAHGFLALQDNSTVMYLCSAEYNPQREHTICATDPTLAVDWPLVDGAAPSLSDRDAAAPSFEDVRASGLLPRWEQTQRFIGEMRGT
Mtb RmlCD inh retest: further read-out of Mtb RmlCD inh, marked with its call; inhibition, %; measured here: mean retest inhibition;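 single compounds in two wells; values far above 100% likely come from compound fluorescence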
Numbers without * were called inactive. A portion of the library; rates above refer to the full screens.

> CCc1ccc(NC(=O)C(C)OC(=O)c2c(C)nn(Cc3ccccc3)c2Cl)cc1 (stereo not drawn)
  Mtb RmlCD inh: 66	Mtb RmlCD inh retest: -4

> Cc1onc(-c2c(Cl)cccc2Cl)c1/C(N)=N/OC(=O)N(C)C
  Mtb RmlCD inh: 62	Mtb RmlCD inh retest: -9

> COCCN(C(=O)CSc1ncc(C(F)(F)F)cc1Cl)c1c(N)n(Cc2ccccc2)c(=O)[nH]c1=O
  Mtb RmlCD inh: 35	Mtb RmlCD inh retest: -1

> O=C(OCc1nc2scc(-c3ccccc3)c2c(=O)[nH]1)c1cc([N+](=O)[O-])ccc1Cl
  Mtb RmlCD inh: 75	Mtb RmlCD inh retest: 9

> O=C(Nc1ncc(Cc2ccc(C(F)(F)F)cc2)s1)c1ccc(-c2cccc([N+](=O)[O-])c2)o1
  Mtb RmlCD inh: 85	Mtb RmlCD inh retest: 14

> C/C(=N\O)c1ccc2c3ccccc3n(C)c2c1
  Mtb RmlCD inh: 76	Mtb RmlCD inh retest: -2

> COc1ccc(C)cc1NC(=O)c1ccc2c(SCC(=O)O)c3c(nc2c1)CCCC3
  Mtb RmlCD inh: 30	Mtb RmlCD inh retest: -3

> COc1ccccc1CN1CCN(C(=O)c2ccncc2)CC1
  Mtb RmlCD inh: 81	Mtb RmlCD inh retest: -7

> COC(=O)c1c(NC(=O)C2Cc3ccccc3C(=O)O2)sc2c1CCCC2 (stereo not drawn)
  Mtb RmlCD inh: 71	Mtb RmlCD inh retest: -5

> O=C1NC(=O)C(Cc2ccccc2)(c2cccnc2)N1 (stereo not drawn)
  Mtb RmlCD inh: 65	Mtb RmlCD inh retest: -2

> CC(=O)N1CCN(c2ccc(NC(=S)NC(=O)/C=C/c3ccccc3)cc2)CC1
  Mtb RmlCD inh: 56	Mtb RmlCD inh retest: -5

> CCN(Cc1cnn(C)c1)C(=O)CC1C(=O)NCCN1Cc1cccc(OC)c1OC (stereo not drawn)
  Mtb RmlCD inh: 85	Mtb RmlCD inh retest: 4

> CN(C)c1ccc(/C=N/NC(=O)CCCO)cc1
  Mtb RmlCD inh: 39	Mtb RmlCD inh retest: 19

> COc1ccccc1NC(=S)N(Cc1ccccc1)Cc1cccs1
  Mtb RmlCD inh: 38	Mtb RmlCD inh retest: -7

> CC(C)S(=O)(=O)c1cnc(N2CCOCC2)nc1N
  Mtb RmlCD inh: 74	Mtb RmlCD inh retest: -18

> CC(C)NC(=O)CCCC(=O)NC(C)C
  Mtb RmlCD inh: 54	Mtb RmlCD inh retest: -3

> CC1CCC2(CC1)NC(=O)N(Cc1cc(=O)n3ccsc3n1)C2=O (stereo not drawn)
  Mtb RmlCD inh: 49	Mtb RmlCD inh retest: -18

> NS(=O)(=O)c1cccc(NC(=O)c2cccnc2Oc2ccccc2)c1
  Mtb RmlCD inh: 63	Mtb RmlCD inh retest: -27

> CC(=O)NC(C)CCc1ccccc1 (stereo not drawn)
  Mtb RmlCD inh: 64	Mtb RmlCD inh retest: 2

> CC(=O)Nc1ccc(Oc2nc(-c3ccccn3)nc3ccccc23)cc1
  Mtb RmlCD inh: 43	Mtb RmlCD inh retest: 5

> COc1ccccc1NC(=O)c1ccc(NC(=O)COC(=O)C2CCCCC2)cc1
  Mtb RmlCD inh: 40	Mtb RmlCD inh retest: -7

> COc1ccccc1/C=C/C=N/NC(=O)c1cc(-c2ccco2)[nH]n1
  Mtb RmlCD inh: 70	Mtb RmlCD inh retest: -7

> CC1CN(C(=O)N2CCOCC2)CCN1C(=O)N1CCOCC1 (stereo not drawn)
  Mtb RmlCD inh: 73	Mtb RmlCD inh retest: -8

> COc1cccc(OC)c1C(=O)Nc1cc(C)on1
  Mtb RmlCD inh: 42	Mtb RmlCD inh retest: -10

> O=C1NC(=O)N(Cc2ccc(F)cc2)C(=O)/C1=C\c1ccc(N2CCCC2)cc1
  Mtb RmlCD inh: 64	Mtb RmlCD inh retest: -8

> Cc1ccc(N=Cc2c(O)n(-c3nccs3)c(=O)c3ccccc23)c(C)c1
  Mtb RmlCD inh: 33	Mtb RmlCD inh retest: 12

> COc1cccc(NC(=S)N(CCN2CCCCC2)Cc2ccco2)c1
  Mtb RmlCD inh: 33	Mtb RmlCD inh retest: -6

> O=C1C2C(c3ccccc3)C=CC(c3ccccc3)C2C(=O)N1c1cccnc1 (stereo not drawn)
  Mtb RmlCD inh: 35	Mtb RmlCD inh retest: -7

> Cc1ccc(-n2c(N)c(Br)c(=O)[nH]c2=O)cc1C
  Mtb RmlCD inh: 34	Mtb RmlCD inh retest: -3

> O=C(CN1CC(=O)Nc2ccccc21)NCCc1ccc(Cl)cc1Cl
  Mtb RmlCD inh: 33	Mtb RmlCD inh retest: 11

> C/C(=N\OC(=O)c1cccc(Cl)c1)c1sc(C)nc1C
  Mtb RmlCD inh: 104	Mtb RmlCD inh retest: 6

> O=C(COCC(=O)N/N=C/c1ccc(F)cc1)N/N=C/c1ccc(F)cc1
  Mtb RmlCD inh: 40	Mtb RmlCD inh retest: -11

> COC(=O)CSc1nc2ccccn2c(=O)c1C=O
  Mtb RmlCD inh: 33	Mtb RmlCD inh retest: 3

> CN(Cc1cccs1)C(=O)Cc1c[nH]c2ccccc12
  Mtb RmlCD inh: 30	Mtb RmlCD inh retest: -3

> CC(C)C(=O)Nc1cccc(NC(=O)c2cccc(F)c2)c1
  Mtb RmlCD inh: 85	Mtb RmlCD inh retest: -11

> COC(=O)C1=C(NC(=O)c2ccc(Br)cc2)CCS1
  Mtb RmlCD inh: 38	Mtb RmlCD inh retest: -13

> COc1ccc2c(c1OC)C(=O)N1c3ccccc3C(=O)N(c3ccccc3F)C21 (stereo not drawn)
  Mtb RmlCD inh: 108	Mtb RmlCD inh retest: 2

> CCCN1C(=O)/C(=C/c2cc(C)n(C)c2C)SC1=Nc1ccc(OC)cc1
  Mtb RmlCD inh: 45	Mtb RmlCD inh retest: -6

> O=C1CC(C(=O)O)S/C(=N\NC(=O)c2ccc(F)cc2)N1 (stereo not drawn)
  Mtb RmlCD inh: 31	Mtb RmlCD inh retest: -7

> O=C(COc1ccccc1C(=O)Nc1ccccc1)NCCc1ccccc1
  Mtb RmlCD inh: 40	Mtb RmlCD inh retest: 4

> Cc1ccc(/C=N/NC(=O)c2nnn(-c3nonc3N)c2CSc2ccccc2)cc1
  Mtb RmlCD inh: 31	Mtb RmlCD inh retest: -18

> Cc1ccc(-c2ccc(/C=C(\C#N)C(N)=S)n2C)cc1
  Mtb RmlCD inh: 44	Mtb RmlCD inh retest: -14

> CN(CC(O)CON=C1c2ccccc2-c2ccccc21)S(=O)(=O)c1ccc(Br)cc1 (stereo not drawn)
  Mtb RmlCD inh: 56	Mtb RmlCD inh retest: -7

> COc1ccc(OC)c(C(c2nnnn2C(C)(C)C)N2CCc3ccccc3C2)c1 (stereo not drawn)
  Mtb RmlCD inh: 46	Mtb RmlCD inh retest: -10

> Cc1cc(C)n(CCC(=O)N/N=C/c2ccc(O)cc2)n1
  Mtb RmlCD inh: 32	Mtb RmlCD inh retest: 4

> CCc1ccc(NC(=O)c2ccc(F)c(S(=O)(=O)NCC3COc4ccccc4O3)c2)cc1 (stereo not drawn)
  Mtb RmlCD inh: 61	Mtb RmlCD inh retest: 0

> CCOC(=O)c1c(CNc2ccncc2)n(C)c2cc(Br)c(O)cc12
  Mtb RmlCD inh: 38	Mtb RmlCD inh retest: 0

> CCOC(=O)c1c(C)[nH]c(C(=O)OCC(=O)N2CCN(S(=O)(=O)c3ccccc3)CC2)c1C
  Mtb RmlCD inh: 97	Mtb RmlCD inh retest: 0

> COc1ccc(NC(=O)/C=C/c2ccc(Br)o2)cn1
  Mtb RmlCD inh: 46	Mtb RmlCD inh retest: -17

> CC(C)NCCCCOc1ccccc1-c1ccccc1
  Mtb RmlCD inh: 31	Mtb RmlCD inh retest: 0

> O=[N+]([O-])c1sccc1CS(=O)(=O)c1ccccc1
  Mtb RmlCD inh: 59	Mtb RmlCD inh retest: 6

> Cc1[nH]n(-c2nc(-c3cccc([N+](=O)[O-])c3)cs2)c(=O)c1C
  Mtb RmlCD inh: 35	Mtb RmlCD inh retest: 3

> CCN1CCN(CC(=O)Nc2ccc(Cl)c(S(=O)(=O)N(C)C)c2)CC1
  Mtb RmlCD inh: 32	Mtb RmlCD inh retest: -9

> COc1ccc(NC(=O)NN2CCOCC2)cc1OC
  Mtb RmlCD inh: 49	Mtb RmlCD inh retest: 4

> CC(/C=N/NC(=O)c1cnccn1)=C\c1ccco1
  Mtb RmlCD inh: 36	Mtb RmlCD inh retest: -3

> CCn1cnc2sc(C(=O)Oc3cccc(C)c3)c(C)c2c1=O
  Mtb RmlCD inh: 33	Mtb RmlCD inh retest: -7

> C/C=C/C(=O)OCC(=O)Nc1cc(-c2cc(C)c(C)cc2C)nn1-c1ccccc1
  Mtb RmlCD inh: 52	Mtb RmlCD inh retest: 1

> Cc1cc(/C=N/n2c(COc3ccccc3)nc3ccccc3c2=O)c(O)c([N+](=O)[O-])c1
  Mtb RmlCD inh: 52	Mtb RmlCD inh retest: -3

> O=C(O)c1ccc(-c2nc3ccccc3[nH]2)cc1
  Mtb RmlCD inh: 95*	Mtb RmlCD inh retest: 58*

> CCCC1N2CC3([N+](=O)[O-])CN1CC([N+](=O)[O-])(C2)C3(C)C (stereo not drawn)
  Mtb RmlCD inh: 32	Mtb RmlCD inh retest: 3

> O=c1nc2c(O)cccn2c2c1c(=O)[nH]c1ccccc12
  Mtb RmlCD inh: 79	Mtb RmlCD inh retest: -1

> Cc1cc(C)cc(N(CC(=O)N2CCC(C)CC2)S(=O)(=O)c2ccccc2)c1
  Mtb RmlCD inh: 73	Mtb RmlCD inh retest: -3

> O=C(Nn1c(O)c(C=C2N=c3ccccc3=N2)sc1=S)c1ccc(Cl)cc1
  Mtb RmlCD inh: 96	Mtb RmlCD inh retest: -9

> N/C(=N\OC(=O)c1cccc2ccccc12)c1ccncc1
  Mtb RmlCD inh: 37	Mtb RmlCD inh retest: 1

> CN(CCO)S(=O)(=O)c1ccc2c(c1)C(=NO)c1cc(S(=O)(=O)N(C)CCO)ccc1-2
  Mtb RmlCD inh: 96	Mtb RmlCD inh retest: -15

> COC(=O)c1ccc(C(=O)OC)c(NC(=O)/C=C/C(=O)O)c1
  Mtb RmlCD inh: 34	Mtb RmlCD inh retest: 2

> O=[N+]([O-])c1ccc(-c2cn(-c3ccccc3)c(=S)[nH]2)cc1
  Mtb RmlCD inh: 79	Mtb RmlCD inh retest: 1

Assay outcomes as filed in PubChem BioAssay.
